Bioassay records deposited in PubChem BioAssay by several laboratories.
Sa RN4220 lethal = S. aureus RN4220 growth inhibition; OD600, 16 h; inhibition, % (concentration not given with the values); actives 0.33% (n = 330,000);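 active = z-score of -3 or lower and OD600 up to 0.18 on both plates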;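 also: plate controls were untreated cells for no effect and reference antibiotic for full effect; stock transfer was 100 nL into about 80 µL; one replicate is shown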
Bead autofluor = counter-screen for toxin protease inhibitors: compound fluorescence; actives 3.1% (n = 360,000); fluorescence intensity (concentration not given with the values); compound autofluorescence counterscreen, microsphere flow cytometry; active compounds read high;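 active = at least 3 SD above the mean of all compounds, about 16000 in these data; inconclusive = too few beads counted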;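 also: 100 nL of 1 mM stock went into each well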
PrP 5UTR inh = inhibition of PrP 5' UTR reporter expression; cell-based PrP 5' UTR mRNA reporter, plate reader; inhibition, % (no concentration beside the values); actives 0.35% (n = 340,000); AID 488862;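 active = every replicate at 50% or more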;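 also: 0 = median of the neutral control wells; tested in H4 reporter cells; numbers are from one replicate; inactives centre near -14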
BJeLR lethal = BJeLR cell viability loss | BJeLR (HRASV12) viability, CellTiter-Glo ATP luminescence, 48 h; reference of the scale not given here | inhibition, % (no concentration beside the values) | actives 0.17% (n = 300,000) | AID 1554;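 active = replicate mean above 50%; inconclusive = above 50% but judged a plate artefact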;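 also: 50 nL library stock added to about 25 µL; numbers are from one replicate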
Sa ugtP lethal = kills S. aureus RN4220 lacking UgtP. S. aureus RN4220 ugtP deletion, OD600 growth, 16 h; some inactives read as strong as hits. growth inhibition, % (test concentration not listed). actives 0.54% (n = 330,000). AID 1259309;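 active = z-score under -3 and OD600 up to 0.15 on both plates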;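 also: plate controls were untreated wells for no effect and antibiotic for full effect; wells of about 80 µL received 100 nL stock; the first replicate is given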
Mtb hypoxia rep = reduces hypoxia-regulated biosensor signal in M. tuberculosis; M. tuberculosis hypoxia-regulated fluorescent reporter, fluorescence; fluorescence inhibition, % (test concentration not listed); actives 0.1% (n = 300,000);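 active = 35 to 45% if threefold the growth effect, above 45% if 1.5-fold the growth effect; inactive = the rest, general growth blockers included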;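 also: wells of about 50 µL received 100 nL stock; 0% = vehicle wells and 100% = reference inhibitor wells; whole bacteria with a GFP reporter of the hypoxia response; strong numbers were not always called active; many hits fall short of the cut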
Mtb hypoxia rep growth = further read-out of Mtb hypoxia rep, marked with its call; growth inhibition, %; measured here: M. tuberculosis growth (absorbance);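 0% = vehicle and 100% = reference antibiotic; read after six days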
* marks the source's active call; other numbers are inactive results; ? = inconclusive; nt = not tested or not shown; & = joins results of further samples.

SMILES	Sa RN4220 lethal	Bead autofluor	PrP 5UTR inh	BJeLR lethal	Sa ugtP lethal	Mtb hypoxia rep	Mtb hypoxia rep growth
CCCC(=O)C1=C(N(C)c2ccccc2)CC(C)(C)C(C(=O)OC)C1=O (stereo unspecified)	2.2	5044	-12	-2	-7	nt	nt
Cc1cccc(N2CCN(C(=O)Cn3nc(C)n4cccc4c3=O)CC2C)c1 (stereo unspecified)	5.9	5473	-7	-12	4	3	2
O=C(c1cccc(N2CCNC2=O)c1)N1CCCC(Nc2cccc(F)c2)C1 (stereo unspecified)	1.9	6223	-6	-5	2	0	6
O=C1/C(=C/c2ccccc2Cl)SC(=S)N1CCC(=O)N1CCCCC1CCO (stereo unspecified)	6.1	4433	-19	0	8	15	9
CC(C)Cc1nnc(NC(=O)CSc2ncn[nH]2)s1	-3.8	2726	10	17	9	nt	nt
CCOc1ccccc1CN1CCC(Oc2ccc(C(=O)NCc3ccccn3)cc2)CC1	1.4	5511	4	2	1	7	15
CC(=O)N1CCc2cc(S(=O)(=O)NC(CC(C)C)C(=O)Nc3cc(C)ccn3)ccc21 (stereo unspecified)	2.3	3891	-29	2	1	nt	nt
CCOc1ccc(NC(=O)NN2C(C)CCCC2C)cc1 (stereo unspecified)	4.3	3855	1	14	3	6	0
CNC(=O)c1cc(S(=O)(=O)Nc2ccc(C)cc2C)ccc1C	-1.1	5820	-9	8	9	9	5
COc1ccc2[nH]c3c(c2c1)CCN1C(=O)C(CC(=O)NCCC2=CCCCC2)C[C@H](C(=O)N(C(C)C)C(C)C)[C@@]31C (stereo partly specified)	0.1	3828	-18	nt	-22	-13	-2
CCN(CC)Cc1ccccn1	4.2	5318	-14	-9	5	8	15
CCOC(=O)C1(Nc2nccs2)Sc2ccccc2NC1=O (stereo unspecified)	7.8	3788	-9	22	-4	4	11
CCCCNC(=O)C1CCN(Cc2ccccn2)CC1	0.2	3712	-27	-1	-7	5	5
OCCOc1ccccc1	8.4	3970	-10	nt	-5	nt	nt
Cc1ccc(CC2CC(=O)N(C(Cc3ccccc3)C(=O)O)C2=O)cc1 (stereo unspecified)	1.0	4511	-56	-4	0	-10	-10
Cc1c(O)ccc(C(=O)CN2CCN(c3ccccc3F)CC2)c1O	12	5381	-45	-16	-1	7	8
O=C(Nc1cc(Cl)cc(Cl)c1)c1cccnc1	2.0	4108	-13	5	-16	7	15
C/C(=C\C(=O)c1cccnc1)Nc1ccc(O)cc1	-3.9	5639	-52	-2	-5	-6	-8
Cc1ccc(-c2nnc3ccc(SC(C)C(=O)O)nn23)cc1 (stereo unspecified)	4.3	5916	-16	1	10	7	7
O=[N+]([O-])c1ccccc1S(=O)(=O)N1CCN(Cc2ccsc2)CC1	4.3	4117	-23	1	7	10	5
O=C(c1cc2ccccc2c(=O)o1)N1CCCc2ccccc21	9.5	3086	-12	-13	4	16	7
CCc1ccc(C(=O)NN=C2CCCCCC2)s1	7.0	4722	-15	5	10	13	5
O=C(/C=C/c1c(Cl)cccc1Cl)N1CCOCC1	2.6	?	8	-4	10	11	2
COc1cccc(NC(=O)NCCc2ccc(Cl)cc2)c1	-4.0	2539	-39	-4	-2	-13	1
Cc1cc(NN=Cc2ccc(O)cc2O)nc(N2CCOCC2)n1	4.1	nt	nt	nt	1	5	8

One compound at a time, as listed above. Values in the order: Sa RN4220 lethal | Bead autofluor | PrP 5UTR inh | BJeLR lethal | Sa ugtP lethal | Mtb hypoxia rep | Mtb hypoxia rep growth
O=[N+]([O-])c1ccccc1S(=O)(=O)N1CCN(Cc2ccsc2)CC1 is entered as 4.3 | 4117 | -23 | 1 | 7 | 10 | 5
COc1ccc2[nH]c3c(c2c1)CCN1C(=O)C(CC(=O)NCCC2=CCCCC2)C[C@H](C(=O)N(C(C)C)C(C)C)[C@@]31C (stereo partly specified) is entered as 0.1 | 3828 | -18 | nt | -22 | -13 | -2
CCOC(=O)C1(Nc2nccs2)Sc2ccccc2NC1=O (stereo unspecified) is entered as 7.8 | 3788 | -9 | 22 | -4 | 4 | 11

Part of the list above, limited to Mtb hypoxia rep and Sa ugtP lethal:
structure	Mtb hypoxia rep	Sa ugtP lethal
CCCC(=O)C1=C(N(C)c2ccccc2)CC(C)(C)C(C(=O)OC)C1=O (stereo unspecified)	nt	-7
O=[N+]([O-])c1ccccc1S(=O)(=O)N1CCN(Cc2ccsc2)CC1	10	7
O=C(/C=C/c1c(Cl)cccc1Cl)N1CCOCC1	11	10
OCCOc1ccccc1	nt	-5
CCN(CC)Cc1ccccn1	8	5

The list continues:
SMILES	Sa RN4220 lethal	Bead autofluor	PrP 5UTR inh	BJeLR lethal	Sa ugtP lethal	Mtb hypoxia rep	Mtb hypoxia rep growth
Cc1noc(C)c1C(=O)Nc1nc2ccccc2s1	-2.9	?	-43	nt	1	6	13
CCOC(=O)c1ccc(CS(=O)c2ccc(Cl)cc2)o1 (stereo unspecified)	4.7	11960	nt	-7	14	6	9
O=C(CCS(=O)(=O)c1ccc(Br)s1)N1CCc2ccccc21	8.6	10986	-16	-2	14	6	9
O=C(NC(=S)NCc1nc2ccccc2[nH]1)c1ccccc1F	1.7	4244	-131	2	4	11	2
Cc1ccc(N(C(C)C(=O)Nc2ccc3c(c2)OCO3)S(C)(=O)=O)cc1 (stereo unspecified)	6.3	2057	-23	-6	1	nt	nt
CCOC(=O)C1C2COc3ccc(C)cc3C2N2C(=O)c3cc(F)c(F)cc3NC(=O)[C@@]12C (stereo partly specified)	4.0	nt	nt	nt	1	17	9
O=C(CCSc1ccc(F)cc1)NNC(=O)c1ccc([N+](=O)[O-])cc1	0.1	6380	-11	nt	5	9	-4
CCN(CC)C(=O)C1CCCN(Cc2nc(-c3cnccn3)no2)C1 (stereo unspecified)	-0.2	3887	-24	9	0	9	-3
CCc1cc2cccc(C)c2nc1SCC(=O)NNC(=O)c1ccco1	4.4	11192	-15	4	9	18	9
CCCOc1ccc(C(=O)N2CCN(Cc3ccc4c(c3)OCO4)CC2)cc1	5.3	3364	-11	-4	8	12	9
O=C(Nc1ccccc1N1CCOCC1)c1cccc(NS(=O)(=O)c2ccc(F)c(F)c2)c1	8.6	4024	-8	-2	-3	10	7
Cc1ccc(Nc2nc(N)nc(CN3CCN(Cc4ccc5c(c4)OCO5)CC3)n2)cc1C	11	5201	-20	4	11	-5	2
COc1ccc2nc(C)c3c(c2c1)OC(C(C)(Cl)Br)C3 (stereo unspecified)	3.7	3515	-7	3	13	14	-2
CCCCNC(=O)OC1CC2CCN3C(=O)CCC(C)(C)C(C1)C23 (stereo unspecified)	2.6	nt	nt	nt	0	0	7
O=C(Nc1cccnc1)c1cccc(S(=O)(=O)N2CCc3ccccc32)c1	3.0	5074	-10	4	-3	5	6
Cc1ccc(/C=N/NC(=O)C2CCN(Cc3ccc(F)cc3Cl)CC2)o1	nt	4552	-10	0	nt	nt	nt
CNC(=O)N(O)C1N(N=Cc2ccccc2F)C(=S)SC1(C)C (stereo unspecified)	0.9	nt	nt	nt	-4	-13	-3
CCOc1cc(C(N)=O)cc(Cl)c1OCc1ccccc1	-3.1	3182	-15	2	-12	-10	2
CCOC(=O)CSc1nc2c(sc3ccc([N+](=O)[O-])cc32)c(=O)n1Cc1ccco1	9.9	2138	-11	1	19	15	5
O=C1CN(C(=O)CSc2nnc(C3CC3)n2-c2ccccc2)c2ccccc2N1	-4.9	nt	-4	-2	-4	-7	3
COc1ccc(N2C(=O)CC(SCC(=O)O)C2=O)cc1 (stereo unspecified)	3.9	9763	-22	-1	2	17	7
CCn1cc(C(=O)N(C)c2ccc(OC)cc2)c2cc(OC)c(OC)cc2c1=O	-1.9	3807	-19	-1	1	-1	3
Cc1cc(C)c(NC(=O)CN(C)C(=O)CNC(=O)c2cccs2)c(C)c1	1.7	3862	-2	nt	-4	-2	7
O=C(NCC(=O)N1CCc2ccccc2C1)c1ccc(Cl)cc1Cl	0.3	3833	23	-2	5	3	3
CC1CCc2c(C(=O)Nc3ccc(N4CCOCC4)cc3)csc2C1 (stereo unspecified)	8.7	4329	-6	11	-1	11	9

Next part; it opens with the 2 that closed the last part.
SMILES	Sa RN4220 lethal	Bead autofluor	PrP 5UTR inh	BJeLR lethal	Sa ugtP lethal	Mtb hypoxia rep	Mtb hypoxia rep growth
O=C(NCC(=O)N1CCc2ccccc2C1)c1ccc(Cl)cc1Cl	0.3	3833	23	-2	5	3	3
CC1CCc2c(C(=O)Nc3ccc(N4CCOCC4)cc3)csc2C1 (stereo unspecified)	8.7	4329	-6	11	-1	11	9
O=c1c2ccccc2nc2c3ccccc3c(NCc3ccccn3)nn12	8.1	2233	-23	nt	-1	1	-15
CC(C)C(=O)Nc1ccc(S(=O)(=O)Nc2nccc(/C=C/c3ccccc3)n2)cc1	6.0	8421	-14	0	-7	5	-3
Cc1ccc(S(=O)(=O)N2CCCCC2)cc1NC(=O)COC(=O)Cc1ccc(Cl)cc1	1.2	2548	-21	0	0	14	5
O=[N+]([O-])c1ccc2cc[nH]c2c1	4.0	3697	-3	nt	0	2	9
O=C(N/N=C/c1ccc(O)cc1)/C(=C/c1ccc([N+](=O)[O-])cc1)NC(=O)c1ccccc1	nt	3885	-17	-9	nt	nt	nt
O=C(Nc1nccs1)[C@@H]1CC=C[C@@H]2CCN(Cc3ccccc3)C(=O)[C@@H]21	nt	3744	7	-8	nt	nt	nt
OC(CNCC1COc2ccccc2O1)COCc1cccs1 (stereo unspecified)	-1.5	12418	-28	-10	-5	8	0
Cc1cc(Br)ccc1NC(=O)C(C)c1ccc([N+](=O)[O-])cc1 (stereo unspecified)	0.8	2105	-23	-1	-6	0	5
COc1ccc(/C=C2/SC(=S)N(Cc3ccccc3)C2=O)cc1O	-0.6	2980	-6	2	-11	1	-8
Cc1cc(C)c(S(=O)(=O)N2CCCCC2)c(C)c1N(C)S(=O)(=O)c1ccccc1	2.3	10696	-15	1	3	8	2
C=CCOc1ccc(CNc2nccs2)cc1	-6.5	nt	-37	0	-4	-1	6
Cc1ccc(NC(=O)c2ccc(Cn3cc(Cl)cn3)o2)c(C)c1	nt	5195	-9	-4	nt	nt	nt
O=C(NCCN1C(=O)S/C(=C\c2ccccc2Cl)C1=O)C1=COCCO1	5.1	5583	-38	19	5	2	0
O=C(Cc1ccc(NC(=O)C2CCN(C(=O)C3CC3)CC2)cc1)Nc1ccc(C(=O)N2CCOCC2)cc1	7.7	2825	-3	nt	3	-5	-2
CC(=O)Nc1ccc(C(=O)Nc2cc(S(=O)(=O)N3CCOCC3)ccc2N2CCOCC2)cc1	3.6	3828	2	nt	4	-6	-2
O=C(O)c1ccc2c(c1)N(Cc1cccc(F)c1)C(=O)CS2	2.2	6003	-6	8	8	6	-3
COc1ccc(N2CCN(C(=O)c3ccc4c(c3)CCN4S(=O)(=O)c3ccccc3)CC2)cc1	3.7	4768	-13	-2	9	8	-8
CCOC(=O)c1c(-c2ccc(OC)cc2)csc1NC(=O)COc1ccc2c(C)cc(=O)oc2c1	2.3	2378	2	5	3	2	3
CCCC(=O)OCC(=O)NCc1ccc(Cl)cc1	1.2	4291	-17	-3	-1	-4	9
COc1ccc(NC(=O)C2CC(=O)n3cnnc3S2)cc1 (stereo unspecified)	9.5	3526	-10	-6	11	8	-6
Cc1cc(C)cc(-n2c(=O)c3sccc3n(CC(=O)NCc3ccco3)c2=O)c1	0.6	16068	-6	5	8	4	-3
COCCCNC(=S)NC(=O)c1ccc(C)cc1	3.6	2161	-51	2	3	8	0
CC(=O)OCCC(NS(=O)(=O)OCC(Cl)(Cl)Cl)c1ccccc1 (stereo unspecified)	5.0&7.1	2981	-9	-4	6&-16	5&9	9&4

Some of these compounds in order of heavy-atom count, rising.
SMILES	Sa RN4220 lethal	Bead autofluor	PrP 5UTR inh	BJeLR lethal	Sa ugtP lethal	Mtb hypoxia rep	Mtb hypoxia rep growth
CCOC(=O)c1ccc(CS(=O)c2ccc(Cl)cc2)o1 (stereo unspecified)	4.7	11960	nt	-7	14	6	9
CCCCNC(=O)OC1CC2CCN3C(=O)CCC(C)(C)C(C1)C23 (stereo unspecified)	2.6	nt	nt	nt	0	0	7
O=C(NCCN1C(=O)S/C(=C\c2ccccc2Cl)C1=O)C1=COCCO1	5.1	5583	-38	19	5	2	0
